Screening results (PubChem BioAssay)
Rango release inh: prevents RanGTP from dissociating the Rango-importin beta complex. O95149+P62826. Biochemical FRET Rango-importin beta, RanGTP-induced dissociation. Potency, µM (top dose mostly 46.1 µM), for the others: top-dose activity change, negative = inhibition. 340,000 compounds, 0.071% hits. AID 540253; active means falling FRET ratio curve, often poorly fitted, with flat reads before Ran was added; inconclusive means other falling curves, or compound fluorescence or quenching; inactive means flat or rising ratio curve;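 further: potency means the concentration at half of the fitted maximal effect; % of control where 0% means no effect; nearly all actives have a fitted effect of over 45% in size; -100% = wells without RanGTP and RCC1; the record marks most hits as doubtful in a second field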
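Compounds sat 5 min at room temperature with 0.1 uM Rango biosensor plus 0.25 uM importin beta, then FRET pre-read. RanGTP-RCC1 (0.6 uM Ran, 2mM GTP, 0.2 uM RCC1) added for 45 min, and the CFP/YFP post-read measured blocked complex dissociation.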
miR-21 FLuc: raises the signal of a miR-21 reporter; HeLa miR-21 FLuc reporter, luciferase, 48 h; Potency, µM (highest dose often 38.3 µM), for the others: top-dose reporter change, positive = more light; 340,000 tested, under 10 active; AID 2288; active = well fitted rising curve with a large enough effect; inconclusive = small, poorly fitted or top-dose-only effect; inactive = no such curve, though single readings can be large or run the other way;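 further: % of control where 0% means no effect; miR-21 action dims this reporter so a rising signal means less miR-21 action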
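Compounds were titrated across several concentrations (up to approximately 40 uM) and incubated 48 hours with HeLa miR-21-FLuc reporter cells (miR-21 target sequence downstream of FLuc, endogenous miR-21). Readout was firefly luciferase luminescence after lytic detection reagent.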
Rango complex inh: prevents formation of the Rango-importin beta complex; Q14974; 340,000 compounds, 0.031% hits; Rango CFP/YFP FRET sensor + importin beta, 45 min; Potency, µM (top dose mostly 92.2 µM), inactives show at the highest dose inhibition of complex formation; active = rising FRET ratio curve, often small or poorly fitted; inconclusive = mostly compound fluorescence or quenching in the first reads; inactive = flat curves in all reads;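 further: potency means the concentration at half of the fitted maximal effect; 0% = DMSO wells and 100% = buffer wells lacking importin beta; nearly all actives have a fitted effect of over 15% in size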
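Inhibition scored from the CFP 486 nm/YFP 530 nm FRET ratio 45 min after adding 0.125 microM importin beta to 50 nM Rango biosensor preincubated 5 min with compound (room temperature, PBS with DTT, Tween-20, BSA). No-importin wells as positive control.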
GLA inh pH 4.5: inhibitors of human alpha-galactosidase A at pH 4.5 | 230,000 tested, under 10 active | purified enzyme, 4-MU-alpha-Gal fluorescence, pH 4.5 | activity change, negative = inhibition, % at 105 µM; inconclusive = small, poorly fitted or top-dose-only inhibition, or a rising curve; inactive = flat fitted curve, though single readings scatter; no compound was filed as active;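 further: 0% = full activity with enzyme and -100% = basal without enzyme; dose as in the result columns while the protocol names 77 µM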
Target sequence (P06280 whole entry, looked up): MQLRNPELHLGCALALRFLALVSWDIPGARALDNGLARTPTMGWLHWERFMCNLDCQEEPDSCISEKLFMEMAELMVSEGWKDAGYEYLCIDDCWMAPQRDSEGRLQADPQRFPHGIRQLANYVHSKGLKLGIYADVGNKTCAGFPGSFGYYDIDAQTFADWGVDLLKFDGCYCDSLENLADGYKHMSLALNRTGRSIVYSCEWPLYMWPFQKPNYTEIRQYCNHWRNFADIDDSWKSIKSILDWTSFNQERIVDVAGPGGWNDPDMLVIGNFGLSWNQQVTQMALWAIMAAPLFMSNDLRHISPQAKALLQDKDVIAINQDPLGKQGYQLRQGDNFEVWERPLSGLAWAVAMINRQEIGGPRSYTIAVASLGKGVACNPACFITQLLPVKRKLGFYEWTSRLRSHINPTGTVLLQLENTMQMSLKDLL
* = called active by the depositor; ? = inconclusive; . = no result given.

SMILES | Rango release inh | miR-21 FLuc | Rango complex inh | GLA inh pH 4.5
CCOC(=O)C1C(=O)NC(C)C1c1ccccc1 (centres undefined) | -8% | -2% | 2.2% | 1
COc1ccc(Cl)cc1-c1n[nH]c(=S)n1C1CCCCC1 | 10% | 7% | 0.0% | -11
CSc1nc2c(c(-c3ccccc3)c1C#N)CCC2 | -1% | . | -1.5% | .
Cc1ccc(NC(=O)CSc2nncc3ccccc23)cc1 | 1% | -1% | -1.7% | .
COc1ccccc1N1CCN(CCCCOc2cccc3ccccc23)CC1 | 25% | -9% | 0.2% | -2
CC(=O)Nc1cccc(C(=O)N/N=C/c2cccnc2)c1 | 26% | -1% | ? | 8
CCN1C(=O)[C@@H]2[C@@H](c3ccc(SC4CCCCC4)cc3)N3CCC[C@@]3(C(=O)OC)[C@@H]2C1=O | 14% | . | -0.5% | .
CCN1C[C@@H]2[C@@H]3C(=O)N(Cc4ccccc4)C(=O)[C@@H]3[C@](C)(C1=O)N2C(=O)c1ccc(F)cc1 | -8% | . | 1.4% | .
Cc1ccc(OCC(=O)N/N=C/C=C/c2ccco2)cc1C | -13% | -5% | -2.9% | -5
Cc1ccc(S(=O)(=O)NC(CC(C)C)C(=O)NCC(c2ccco2)N2CCCCC2)cc1 (centres undefined) | -13% | . | -5.3% | .
C=CCOc1ccc2c(c1)C(=NO)c1cc(OCC=C)ccc1-2 | -6% | -19% | -0.7% | -4
Cc1cccc(NC(=S)NC(NC(=O)OCc2ccccc2)C(Cl)(Cl)Cl)c1 (centres undefined) | 1% | 15% | -3.2% | -6
COc1ccc(C2(CNC(=O)Cc3ccc(OC)c(OC)c3)CCCC2)cc1 | -9% | 1% | -0.7% | 1
O=C(Nc1ccon1)C12CC3CC(C1)CC(n1cnc([N+](=O)[O-])n1)(C3)C2 | -11% | 1% | 1.6% | -5
O=C(CN1C(=O)c2ccccc2S1(=O)=O)NCc1ccccc1Cl | -10% | -8% | -2.3% | 0
O=C(Nc1ccccc1F)Nc1ccccc1F | -4% | -23% | -1.2% | -3
CCc1ccc(OC)c(S(=O)(=O)NCc2cccs2)c1 | 16% | . | 0.1% | .
CN(C)c1nc(-c2cccs2)cc(C(F)(F)F)c1C#N | ? | -2% | ? | -1
O=C(N/N=C/c1ccc([N+](=O)[O-])o1)c1cc2ccccc2o1 | -14% | ? | ? | -6
Cc1cccc(NC(=O)NC2CC3CCC(C2)N3Cc2ccco2)c1 (centres undefined) | 2% | 3% | 0.4% | -1
CCCCCSc1nnc(-c2cc(Br)ccc2N)c(=O)[nH]1 | -9% | -5% | -0.1% | -1
COC(=O)CN(C(=S)Nc1ccccc1)C1CC(=O)N(c2ccc(OC)cc2)C1=O (centres undefined) | -3% | -13% | -0.5% | -3
COc1ccc2c(c1)C(=O)N1[C@H]3c4cc(OC)ccc4OC[C@@H]3[C@H](c3ccccc3)[C@]1(C)C(=O)N2 | 0% | . | 2.7% | .
O=C1C=C(O)c2cccc(O)c2C1=O | -10% | 8% | -3.9% | -2
CCOc1ccc(-c2csc(Cn3c(CN4CCN(C)CC4)nc4ccccc4c3=O)n2)cc1 | 0% | 6% | -4.5% | -3
Cc1ccc(SCC(=O)OCC(=O)NCCc2ccccc2)cc1 | 9% | . | -0.5% | .
COc1ccc(OC)c(NC(=O)CSc2nc3nc(C)cc(C)n3n2)c1 | -8% | . | 0.9% | .
Cc1ccc(S(=O)(=O)N(C)c2ccc(OC(=O)c3cc(=O)[nH]c4ccccc34)cc2)cc1 | 0% | . | -1.3% | .
O=C(NCCCc1ccccc1)C1CCC(CNc2c(N3CCCCC3)c(=O)c2=O)CC1 (centres undefined) | -3% | -1% | 0.2% | 6
FC(F)(F)c1cc(-c2cccs2)nc(-n2cc(Cl)cn2)n1 | -9% | -1% | -1.5% | 4
Cc1nc2ccc(NC(=S)N3CCC(C)CC3)cc2nc1C | -28% | -56% | ? | -1
S=C(NCC1CCCO1)N1CCN(c2ccc(Cl)c(Cl)c2)CC1 (centres undefined) | -3% | 24% | 0.4% | 1
Cc1ccc(C)c(NC(=O)NC2CCCCCCC2)c1 | -1% | -3% | 3.8% | .
Cc1ccc(N(C(=O)Cn2nnc3ccccc32)C(C(=O)NCc2ccco2)c2cccnc2)cc1 (centres undefined) | -4% | -9% | 1.9% | -6
CCOC(=O)N1CCN(C(=S)Nc2cc(S(=O)(=O)N3CCOCC3)ccc2Cl)CC1 | 4% | 20% | 0.4% | 2
CCOc1ccc(-c2cc(C(=O)NCCCN3CCOCC3)c3ccccc3n2)cc1 | -6% | -17% | -1.5% | .
Cc1cc2ccccc2n2c(SCC(=O)Nc3ccc(S(=O)(=O)N4CCC(C)CC4)cc3)nnc12 | -7% | -3% | ? | -2
Cc1ccc(S(=O)(=O)N(CC(=O)Nc2ccc(F)cc2)C(=O)N2CCN(C)CC2)cc1 | 11% | . | -6.7% | .
CCn1cc(Cl)c(C(=O)Nc2c(C)nn(Cc3c(F)c(F)c(F)c(F)c3F)c2C)n1 | -5% | 1% | -1.6% | .
Cc1ccc2c(c1)c1c(n2CC(O)Cn2nc(C)c(Br)c2C)C(=O)CCC1 (centres undefined) | -15% | -6% | -0.4% | -2
CCC(CC)=NNc1ccc(S(N)(=O)=O)cc1[N+](=O)[O-] | -15% | -3% | 0.1% | -5
Cc1ccc(S(=O)(=O)N2CCOC23CCN(S(=O)(=O)c2c(C)cc(C)cc2C)CC3)cc1 | -9% | . | -2.5% | .
CCCCN1C(=O)C(O)=C(C(C)=O)C1c1ccc(OC)cc1OC (centres undefined) | 1% | -11% | 1.4% | -6
O=C(Cn1nnc2ccccc21)N/N=C\C=C\c1ccccc1 | 1% | -8% | 3.9% | 8
COc1cccc(NC(=O)CN(C)C(=O)CC(NC(=O)c2ccccc2Cl)c2ccccc2)c1 (centres undefined) | 0% | . | ? | .
COc1cccc(-n2c(SCC(N)=O)nc3ccccc3c2=O)c1 | 21% | -4% | 0.3% | ?
CCOC(=O)c1cnc2c(C)cccc2c1NCc1ccco1 | -1% | -10% | 1.2% | -14
O=C(COC(=O)c1ccc(F)c(S(=O)(=O)N2CCOCC2)c1)c1ccc(Cl)cc1 | -7% | . | 4.0% | .
CC(CCc1ccccc1)N1CCN(Cc2ccccc2)CC1 (centres undefined) | 16% | 2% | 3.2% | -13
CCc1sc(C(=O)NCCc2ccc(S(N)(=O)=O)cc2)cc1Br | 5% | -11% | 3.9% | 5
CCCCn1c(N)c(N(CCOC)C(=O)c2cc3c(s2)CCC(C)C3)c(=O)[nH]c1=O (centres undefined) | -6% | . | 1.3% | .
O=C(O)c1cccc(CN2C(=O)c3ccccc3C2=O)c1 | -4% | -2% | 17% | .
CCn1nnc(NC(=O)c2c(OC)cccc2OC)n1 | -4% | -3% | -3.0% | -2
O=C(c1cccc(S(=O)(=O)NCc2ccccc2)c1)N1CCN(Cc2ccccc2)CC1 | 27% | 6% | 0.1% | 7
CC(=O)Nc1ccc(S(=O)(=O)Nc2ccc(S(=O)(=O)Nc3nccs3)cc2)cc1 | -2% | -1% | 0.5% | .
CC(C)CC[n+]1ccccc1/C=C/c1ccc(N(C)C)cc1 | ? | ? | ? | .
CCCn1nc(NC(=O)C2CCCO2)c2cc3ccc(C)cc3nc21 (centres undefined) | ? | 2% | ? | -14
CCOC(=O)/C=C1\SC(C)C(=O)N1CC(=O)N(CCC#N)c1ccccc1 (centres undefined) | 22% | . | 1.1% | .
Cc1cccc([C@@H]2[C@@H]3C(=O)N(Cc4ccccc4)C(=O)[C@@H]3[C@]3(Cc4ccccc4)C(=O)N(c4cccc(F)c4)C(=O)N23)c1 | 13% | . | -0.2% | .
C[C@H](N)c1nnc(SCC(=O)N(C)C)o1 | -11% | -7% | -6.1% | -3

Single records, from the list above.
CC(CCc1ccccc1)N1CCN(Cc2ccccc2)CC1 (centres undefined) is entered as Rango release inh = 16%; miR-21 FLuc = 2%; Rango complex inh = 3.2%; GLA inh pH 4.5 = -13
CC(=O)Nc1ccc(S(=O)(=O)Nc2ccc(S(=O)(=O)Nc3nccs3)cc2)cc1 is entered as Rango release inh = -2%; miR-21 FLuc = -1%; Rango complex inh = 0.5%; GLA inh pH 4.5 = .
CCCCn1c(N)c(N(CCOC)C(=O)c2cc3c(s2)CCC(C)C3)c(=O)[nH]c1=O (centres undefined) is entered as Rango release inh = -6%; miR-21 FLuc = .; Rango complex inh = 1.3%; GLA inh pH 4.5 = .

Limited to Rango release inh and miR-21 FLuc, for three of the compounds above:
| smiles | Rango release inh | miR-21 FLuc |
| --- | --- | --- |
| CCOC(=O)/C=C1\SC(C)C(=O)N1CC(=O)N(CCC#N)c1ccccc1 (centres undefined) | 22% | . |
| O=C(c1cccc(S(=O)(=O)NCc2ccccc2)c1)N1CCN(Cc2ccccc2)CC1 | 27% | 6% |
| Cc1cccc([C@@H]2[C@@H]3C(=O)N(Cc4ccccc4)C(=O)[C@@H]3[C@]3(Cc4ccccc4)C(=O)N(c4cccc(F)c4)C(=O)N23)c1 | 13% | . |

More compounds follow:
SMILES | Rango release inh | miR-21 FLuc | Rango complex inh | GLA inh pH 4.5
N#Cc1nc(-c2ccccc2Cl)oc1N1CCCCC1 | -1% | -71% | -2.0% | 3
O=C1CCN(CCc2ccccc2)CCN1CCO | 27% | 0% | -0.2% | .
COc1cc(NC(=O)CN2C(=O)NC(CC(C)C)C2=O)cc(OC)c1OC (centres undefined) | 0% | . | 4.0% | .
CCCC1(CCC)NC(=O)N(CC(=O)Nc2cccc(OC)c2)C1=O | -1% | 8% | -0.1% | 2
Fc1ccc(-c2n[nH]c(=S)c3ccccc23)cc1 | 2% | -2% | -5.0% | -1
CCOC(=O)c1cc(NC(=O)c2c(C)noc2C)cc(C(=O)OCC)c1 | -9% | 2% | 0.6% | -4
O=C(NCCc1ccc(Cl)cc1)C1CCCN(S(=O)(=O)N2CCCCCC2)C1 (centres undefined) | -2% | 15% | -3.9% | .
Clc1ccccc1CNc1ncnc2nc[nH]c12 | -3% | -13% | 1.5% | 4
CCc1ccc(-n2c(C)cc(/C=N/NC(=O)OC)c2C)cc1 | 13% | -9% | -2.9% | -8
O=C(CSc1ncnc2sc(-c3ccccc3)cc12)NC1CCS(=O)(=O)C1 (centres undefined) | 8% | -2% | 0.5% | 5
CSCCC(NC(=O)c1cccc(C)c1)C(=O)OCN1C(=O)c2ccccc2C1=O (centres undefined) | 16% | . | 0.4% | .
COc1cc(NC(=O)c2ccccc2[N+](=O)[O-])ccc1NC(=O)C(C)C | -5% | -13% | -1.0% | -9

A portion of the library; rates above refer to the full screens.
